Rango release inh: inhibition of RanGTP-driven Rango-importin beta dissociation. Potency, µM (titrated, usually from 46.1 µM), for inactives: top-dose activity change, negative = inhibition. O95149+P62826. Biochemical FRET Rango-importin beta, RanGTP-induced dissociation. 340,000 compounds, 0.071% hits; active means falling FRET ratio curve, often poorly fitted, with flat reads before Ran was added; inconclusive means other falling curves, or compound fluorescence or quenching; inactive means flat or rising ratio curve;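 note: potency is the fitted concentration of half-maximal effect; % of control where 0% means no effect; nearly all actives have a fitted effect of over 45% in size; -100% = wells without RanGTP and RCC1; the record marks most hits as doubtful in a second field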
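FRET read at 45 min, room temperature: inhibitors block the CFP/YFP signal rise when RanGTP (0.6 uM Ran, 2 mM GTP, 0.2 uM RCC1) frees Rango (0.1 uM) from importin beta (0.25 uM). Pre-read after 5 min compound exposure flags interference.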
Rango-impB inh: inhibitors of Rango-importin beta complex formation. Q14974. Rango CFP/YFP FRET sensor + importin beta, 45 min. Potency, µM (highest dose often 92.2 µM), inactives show at the highest dose inhibition of complex formation. 340,000 compounds, 0.031% hits. AID 540263; active = rising FRET ratio curve, often small or poorly fitted; inconclusive = mostly compound fluorescence or quenching in the first reads; inactive = flat curves in all reads;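 note: potency is the fitted concentration of half-maximal effect; 0% = DMSO wells and 100% = buffer wells lacking importin beta; nearly all actives have a fitted effect of over 15% in size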
Target sequence (Q14974 whole entry, looked up): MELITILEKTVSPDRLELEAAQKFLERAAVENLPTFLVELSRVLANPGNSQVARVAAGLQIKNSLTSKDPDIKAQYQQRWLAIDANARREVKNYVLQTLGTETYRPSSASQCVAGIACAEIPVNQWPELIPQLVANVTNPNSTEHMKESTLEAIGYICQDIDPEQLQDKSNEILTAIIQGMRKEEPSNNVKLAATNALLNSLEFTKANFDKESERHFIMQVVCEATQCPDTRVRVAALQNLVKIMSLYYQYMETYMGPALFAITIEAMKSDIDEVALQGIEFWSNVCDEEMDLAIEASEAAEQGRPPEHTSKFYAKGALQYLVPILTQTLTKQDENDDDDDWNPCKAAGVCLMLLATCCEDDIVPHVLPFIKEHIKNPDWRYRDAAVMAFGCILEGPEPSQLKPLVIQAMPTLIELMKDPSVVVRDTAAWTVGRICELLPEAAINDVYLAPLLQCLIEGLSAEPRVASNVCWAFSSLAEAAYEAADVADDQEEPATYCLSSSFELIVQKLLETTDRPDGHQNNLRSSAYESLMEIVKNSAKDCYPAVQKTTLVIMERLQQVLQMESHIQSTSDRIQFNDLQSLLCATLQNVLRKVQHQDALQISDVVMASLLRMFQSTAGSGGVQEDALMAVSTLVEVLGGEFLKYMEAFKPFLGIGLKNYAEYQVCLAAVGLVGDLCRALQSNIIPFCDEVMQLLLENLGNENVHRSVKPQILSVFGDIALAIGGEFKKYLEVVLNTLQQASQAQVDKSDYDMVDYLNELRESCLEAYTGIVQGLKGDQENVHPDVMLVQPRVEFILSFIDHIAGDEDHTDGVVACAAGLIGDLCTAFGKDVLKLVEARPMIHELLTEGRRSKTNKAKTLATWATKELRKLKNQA
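FRET biosensor (snurportin 1 IBB flanked by EYFP and cerulean), 50 nM, with compound 5 min, then 0.125 microM importin beta in PBS, 1 mM DTT, 0.02% Tween-20, 0.1% BSA. CFP/YFP ratio read after 45 min at room temperature; pre-read flags interference.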
miR-21 FLuc: miR-21 reporter, rising signal; HeLa miR-21 FLuc reporter, luciferase, 48 h; AID 2288; 340,000 tested, under 10 active; Potency, µM (top dose mostly 38.3 µM), without a hit: at the highest dose reporter change, positive = more light; active = well fitted rising curve with a large enough effect; inconclusive = small, poorly fitted or top-dose-only effect; inactive = no such curve, though single readings can be large or run the other way;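 note: % of control where 0% means no effect; miR-21 action dims this reporter so a rising signal means less miR-21 action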
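HeLa cells endogenously expressing miR-21, stably carrying CMV-driven firefly luciferase with a downstream miR-21 binding site, 2000 cells/well. Titrations up to approximately 40 uM, 48 hours; luciferase luminescence read.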
GLA inh pH 4.5: inhibitors of human alpha-galactosidase A at pH 4.5 | AID 1467 | purified enzyme, 4-MU-alpha-Gal fluorescence, pH 4.5 | P06280 | 230,000 tested, under 10 active | activity change, negative = inhibition, % at 105 µM; inconclusive = small, poorly fitted or top-dose-only inhibition, or a rising curve; inactive = flat fitted curve, though single readings scatter; no compound was filed as active;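 note: 0% = full activity with enzyme and -100% = basal without enzyme; dose as in the result columns while the protocol names 77 µM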
* marks the source's active call; other numbers are inactive results; u = inconclusive; x = no result given; & = joins results of further samples. An excerpt (hit frequency here may not be typical).

SMILES | Rango release inh | Rango-impB inh | miR-21 FLuc | GLA inh pH 4.5
Cc1ccc(SCC(=O)OC(C)C(=O)NC2(C#N)CCCCC2)cc1 (centres undefined) | 4% | 3.2% | x | x
Cn1nc(C(F)(F)F)c(C#N)c1N1CCN(c2ccc(F)cc2)CC1 | -2% | 5.0% | 25% | 0
CC1(C)C[C@@H](O)CC2(C1)C[C@]1(C)CC(O)[C@H]2C(C)(C)C1 (some centres undefined) | 19% | 3.7% | x | x
O=C(Nn1cnc2ccccc2c1=O)c1ccc(F)cc1Cl | 1% | 2.9% | -41% | 6
CCc1ccc(N2C(=O)Cc3c2nc(N)c(C#N)c3N)cc1 | u | u | -61% | 2
Cc1cc2nnc(SCC(=O)N(C)C3CCS(=O)(=O)C3)n2c2ccccc12 (centres undefined) | -6% | 3.8% | 1% | 3
CC(OC(=O)C1CCN(S(=O)(=O)c2ccc(C(C)(C)C)cc2)CC1)C(=O)N(C)C1CCCCC1 (centres undefined) | 18% | -0.2% | x | x
COc1ccc(NC(=O)c2cccc(N3C(=O)C4CC=C(C)CC4C3=O)c2)c(OC)c1 (centres undefined) | 35% | 0.7% | -1% | x
COc1ccc(N2CCN(C(=O)c3ccc(S(=O)(=O)N4CCOCC4)cc3)CC2)cc1 | -11% | -1.9% | -1% | 2
Cc1cccnc1NC(=O)CSc1ccc2c(c1)OCCO2 | 4% | 6.2% | x | x
COc1ccc(N2CCN(Cc3cc(=O)oc4cc(-c5ccccc5)c(O)cc34)CC2)cc1 | -5% | 5.2% | -4% | 6
COCCN(C(=O)COC(=O)CC(C)c1ccccc1)c1c(N)n(Cc2ccccc2)c(=O)[nH]c1=O (centres undefined) | 2% | u | x | x
COC(=O)C(CCSC)NC(=O)CNS(=O)(=O)c1ccc(Br)cc1 (centres undefined) | 1% | 5.2% | -2% | -6
CCOC(=O)C(=O)Nc1nc(-c2ccccc2)c(-c2ccccc2)o1 | 8% | -1.7% | -4% | 4
CC(C)CCC1(CCNC(=O)c2cccs2)CCOC(C)(C)C1 (centres undefined) | 20% | -0.2% | 25% | -16
O=C(CSc1nc2c(oc3ccccc32)c(=O)n1CC1CCCO1)NCc1ccc(F)cc1 (centres undefined) | 7% | 1.5% | x | x
COc1ccc(OC)c(S(=O)(=O)N2CCCC(C(=O)NCc3ccco3)C2)c1 (centres undefined) | -2% | -0.3% | 1% | x
CN(c1ccccc1)S(=O)(=O)c1cccc(NC(=O)C2CC(=O)N(Cc3ccccc3)C2)c1 (centres undefined) | 8% | 1.1% | 20% | -6
CCOC(=O)C1CCN(C(=O)C2CC(=O)N(c3ccc(C)cc3)C2)CC1 (centres undefined) | 1% | 1.8% | -1% | 0
O=C(Nc1ccc2c(c1)OCO2)N1CCOCC1 | -2% | -4.4% | -26% | -1
CCOc1ccc2c(c1)cc(CN(C(=O)CC)C1CCCCC1)c1nnnn12 | 1% | -1.7% | -4% | -3
COC(=O)c1ccccc1Oc1cnc2ccccc2n1 | 13% | 0.2% | -7% | x
COCc1c(Br)c(C)nc(OCC(=O)N/N=C/c2cc(C)n(-c3ccc([N+](=O)[O-])cc3)c2C)c1C#N | 8% | 1.1% | -3% | 6
COc1cc(/C=N/NC(=O)c2ccc(Cn3cc([N+](=O)[O-])cn3)o2)cc(Br)c1O | -8% | -1.8% | -10% | 0
CCOC(=O)c1c(CN2CCC(C)CC2)n(C)c2cc(Br)c(OC)cc12 | 0% | -2.8% | -1% | -4
COC(=O)c1ccc(/C=N/N2C(C)CCCC2C)cc1 (centres undefined) | 8% | 2.2% | -56% | 2
Cc1ccc(NC(=O)CC2SC3=NCCN3C2=O)cc1 (centres undefined) | 6% | 2.5% | -4% | 1
COc1ccccc1C(=O)Nc1cccc2nc(C)ccc12 | -3% | 0.3% | -13% | x
COc1cccc(C(=O)NCC(=O)OCc2ccc(F)cc2Cl)c1 | -5% | -0.6% | 4% | -5
CCCCCOC(=O)Cc1c(C)nc(-c2ccccc2)[nH]c1=O | -1% | -4.8% | 1% | 0
CC(C)(C)c1cc(Cc2ccccc2)[nH]n1 | -3% | -0.1% | -23% | -1
CCCC(=O)N1CCN(c2ccc(NC(=S)NC(=O)c3cccc(C)c3)cc2)CC1 | -8% | 1.3% | 0% | 2
Cc1ccc(N2C(=O)C(Cl)=C(N3CCN(C)CC3)C2=O)c(C)c1 | 4% | 1.6% | 2% | -8
Cc1cc(C)n(CC(O)Cn2c(C)c(C)c3ccccc32)n1 (centres undefined) | -7% | -2.6% | -4% | -3
O=C(COC(=O)c1ccncc1)NCc1ccccc1 | 1% | -2.1% | -5% | 4
Cc1ccc2c(C)ccc(O)c2n1 | -2% | -5.1% | 1% | -2
CCc1ccccc1NC(=O)/C(=C/c1ccco1)c1ccccc1 | -1% | 2.4% | 1% | -12
CCOC(=O)c1sc2ncnc(Nc3cccc(C(=O)O)c3)c2c1C | -2% | 5.5% | -1% | x
COc1ccc(CCNC(=O)C2CC3Cn4c(nc5cc(C)c(C)cc54)C3N2C)cc1 (centres undefined) | -7% | 0.0% | 4% | 3
CC1(C)CC(=O)C(C(C2=C(O)CC(C)(C)CC2=O)c2cccnc2)C(=O)C1 (centres undefined) | 0% | -2.2% | -1% | 0
CC1(C)C(=O)Nc2ccccc2N1C(=O)COC(=O)c1cc(Cl)cc(Cl)c1 | 0% | 0.1% | x | x
O=Cc1ccc(-n2cncn2)cc1 | 0% | -2.0% | 4% | 7
CCN(CC)C(=O)CSc1nnc(-c2cc(-c3ccc(Cl)cc3)nc3ccccc23)o1 | -4% | 1.3% | 1% | 4
COc1cc(C(C[N+](=O)[O-])c2c(-c3ccccc3)cc3ccccn23)cc(OC)c1OC (centres undefined) | -5% | 2.8% | 6% | -1
CCN(CC(=O)NCc1ccc(Cl)cc1)C(=O)Cc1ccccc1[N+](=O)[O-] | 4% | -3.5% | -34% | x
CCCNC(=O)Nc1ccsc1C(=O)OC | 5% | -2.9% | 0% | -8
O=C(Nc1ccc2c(c1)OCCO2)c1ccc(Br)s1 | 0% | 1.0% | -17% | -3
CCOC(=O)c1c(-c2ccco2)csc1NC(=O)COC(=O)c1cnc(C)cn1 | 0% | u | x | x
OC(CNCc1ccc(F)cc1)(c1ccc(F)cc1)c1ccc(F)cc1 | -11% | 0.2% | 5% | -6
Cc1cc(C(=O)NNS(=O)(=O)c2cc(C(=O)O)ccc2Cl)c(C)n1-c1ccccc1 | 9% | -0.9% | x | x
O=C(c1cc(-c2cccc(O)c2)on1)N1CCc2ccccc2C1 | -1% | -1.6% | -46% | -7
COc1ccc(N2CCN(c3cc(C)nc4ccc(OC)cc34)CC2)cc1 | -3% | 6.5% | 21% | x
CN(C)C(=O)c1ccc(NC(=O)c2ccccc2-c2ccccc2)cc1 | -2% | -1.0% | -1% | x
CCOc1ccc(NC(=O)CSc2nccn(-c3ccc4c(c3)OCCO4)c2=O)cc1 | -16% | -0.1% | x | x
Cc1cccn2c(=O)c3cc(C(=O)NC4CCCC4)sc3nc12 | -8% | -2.7% | -21% | x
CCc1ccc(C(=O)C[n+]2cccc3cc(OC)ccc32)cc1 | -8% | u | u | x
COc1ccc(CC(=O)Nc2ccc(/C(C)=N/NC(=O)c3ccc(OC)cc3OC)cc2)cc1 | 15% | -0.4% | -29% | x
CCCCCC(=O)Oc1cccc(N2C(=O)C3CCCCC3C2=O)c1 (centres undefined) | -2% | 0.8% | -1% | 2
O=C(NC1CCCc2ccccc21)c1ccccc1 (centres undefined) | 7% | 1.9% | -2% | 3
CN1CC(=O)N2C(c3cccc([N+](=O)[O-])c3)c3[nH]c4ccccc4c3C[C@H]2C1=O (some centres undefined) | -11% | 0.1% | -6% | x

Limited to GLA inh pH 4.5 and Rango-impB inh (five entries from above):
structure | GLA inh pH 4.5 | Rango-impB inh
CC1(C)C(=O)Nc2ccccc2N1C(=O)COC(=O)c1cc(Cl)cc(Cl)c1 | x | 0.1%
O=Cc1ccc(-n2cncn2)cc1 | 7 | -2.0%
CCN(CC)C(=O)CSc1nnc(-c2cc(-c3ccc(Cl)cc3)nc3ccccc23)o1 | 4 | 1.3%
COc1cc(C(C[N+](=O)[O-])c2c(-c3ccccc3)cc3ccccn23)cc(OC)c1OC (centres undefined) | -1 | 2.8%
CCN(CC(=O)NCc1ccc(Cl)cc1)C(=O)Cc1ccccc1[N+](=O)[O-] | x | -3.5%

Following part
SMILES | Rango release inh | Rango-impB inh | miR-21 FLuc | GLA inh pH 4.5
CCOP(=O)(c1ccc(N(C)C)cc1)C(O)c1cccnc1 (centres undefined) | 6% | 1.4% | -2% | -3
O=C(O)CCCCCNC(=O)c1cccc(Br)c1 | -8% | 2.3% | 0% | 9
O=C1C=C(N2CCN(C(=O)c3ccccc3)CC2)C2(CCCCC2)O1 | 18% | -3.7% | 1% | 6
CC(=O)N=c1c(C#N)cc2c(=O)n3ccccc3nc2n1Cc1ccccc1 | u | u | 1% | u
Cc1ccc(S(=O)(=O)N(CC(=O)NC2CCCCCC2)c2ccccc2F)cc1 | -7% | u | 0% | 2
CN(C)CCN=Cc1c(O)n(Cc2ccc3c(c2)OCO3)c(=O)c2ccccc12 | u | u | -1% | 2
Cc1c(Cl)cccc1NC(=S)Nc1ccccn1 | 1% | -0.2% | -6% | 0
O=S(=O)(Nc1ccc(N2CCOCC2)cc1)c1ccccc1 | -19% | u | -3% | 4
O=C(OCC(=O)N1c2ccccc2Sc2ccccc21)c1cccnc1 | 22% | -0.3% | 0% | -3
O=C(CSc1nnc(CNC(=O)c2c(F)cccc2F)o1)NCc1ccccc1Cl | -2% | 1.5% | 0% | x
COc1ccc(CNC(=O)C(c2cccs2)N(Cc2ccco2)C(=O)Cc2cccs2)cc1 (centres undefined) | -7% | 3.1% | 19% | -12
O=C(O)C1Cc2ccccc2CN1S(=O)(=O)c1ccc(Cl)cc1 (centres undefined) | 9% | 0.4% | -4% | 5
Cc1nc(CNC(=O)c2ccccc2OC2CCN(S(C)(=O)=O)CC2)cs1 | -20% | -0.7% | -1% | 3
COc1ccc(NC2(c3ccccc3)OC(=O)c3ccccc32)cc1 (centres undefined) | -12% | 2.0% | 1% | -7
Cc1ccc(CNC(=O)CN2C(=O)COc3ccc(S(=O)(=O)N4CCC(C)CC4)cc32)o1 | -9% | 1.7% | -1% | x
Cc1cccc(C)c1NC(=O)C1CCN(C(=O)c2cccs2)CC1 | 14% | 4.0% | -2% | x
COC(=O)CC1COc2ccccc2N1C(=O)c1ccc(C(C)(C)C)cc1 (centres undefined) | 0% | 1.6% | 6% | -12
CC1CCN(S(=O)(=O)c2nnc(NC(=O)c3cccc(Cl)c3)s2)CC1 | 3% | 0.4% | -3%&0% | x

3 compounds out of the list above, ordered by their value in Rango release inh, highest first.
SMILES | Rango release inh | Rango-impB inh | miR-21 FLuc | GLA inh pH 4.5
Cc1ccc(SCC(=O)OC(C)C(=O)NC2(C#N)CCCCC2)cc1 (centres undefined) | 4% | 3.2% | x | x
COc1ccccc1C(=O)Nc1cccc2nc(C)ccc12 | -3% | 0.3% | -13% | x
Cc1nc(CNC(=O)c2ccccc2OC2CCN(S(C)(=O)=O)CC2)cs1 | -20% | -0.7% | -1% | 3

As a short view, some entries already given:
SMILES | Rango release inh | Rango-impB inh | miR-21 FLuc | GLA inh pH 4.5
Cc1nc(CNC(=O)c2ccccc2OC2CCN(S(C)(=O)=O)CC2)cs1 | -20% | -0.7% | -1% | 3
COc1ccc(NC2(c3ccccc3)OC(=O)c3ccccc32)cc1 (centres undefined) | -12% | 2.0% | 1% | -7
Cc1ccc(CNC(=O)CN2C(=O)COc3ccc(S(=O)(=O)N4CCC(C)CC4)cc32)o1 | -9% | 1.7% | -1% | x
Cc1cccc(C)c1NC(=O)C1CCN(C(=O)c2cccs2)CC1 | 14% | 4.0% | -2% | x
COC(=O)CC1COc2ccccc2N1C(=O)c1ccc(C(C)(C)C)cc1 (centres undefined) | 0% | 1.6% | 6% | -12
CC1CCN(S(=O)(=O)c2nnc(NC(=O)c3cccc(Cl)c3)s2)CC1 | 3% | 0.4% | -3%&0% | x

Screens: PubChem, National Center for Advancing Translational Sciences (NCATS)
